Arbovirus inh – antivirals against arbovirus infection, primary screen, cell-based, full library, 10K replicate subset; arbovirus infection cell-based antiviral screen; inhibition, % at 10 µM; hit rate 0.37% among 200,000; AID 1251, 2008;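 active = inhibition from about 30%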;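 note: bluetongue infection of BSR cells; cell survival read as ATP light after 72 h; 0% = infected wells without compound and 100% = uninfected wells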
YopH inh – YopH tyrosine phosphatase inhibitors, primary screen, biochemical, fluorescence Ex485/Em525 | YopH tyrosine phosphatase [Yersinia enterocolitica] | hit rate 0.16% among 140,000 | inhibition, %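 (about 10 µM by stock and volumes)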;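 active = inhibition of 50% or more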;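 note: controls were vehicle for no effect and minimum signal wells for full effect; inactives centre near -20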
Mtb betalactam – beta-lactam sensitization of Mtb H37Rv, H37Rv; M. tuberculosis H37Rv growth with meropenem, percent inhibition; hits of this screen are not shown here; inhibition, % at 25 µM; hit rate 0.27% among 330,000; AID 434955, 2010;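 active = about 74% or more and at least 40 points above the plate without the antibiotic, then above 30% in a dose series; inconclusive = first-round hits that could not be retested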;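 note: growth measured after seven days incubation then overnight dye step; 0% = bacteria only wells and 100% = bacteria with antibiotic; twin plates without the antibiotic show which effects depend on it; some results filed as inactive read as strong as hits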
Mtb growth – M. tuberculosis H37Rv growth inhibitors, H37Rv strain (AID 1626); M. tuberculosis H37Rv growth inhibition; higher % means a stronger effect; inhibition, % at 10 µM; hits with a dose series show IC50 in µM; hit rate 0.95% among 220,000;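 active = confirmed in a dose series; inconclusive = inhibition above 80% but not taken into the dose series; inactive = below 80% or under 30% at every dose of the series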;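 note: bacteria incubated seven days before Alamar blue readout; 0% = bacteria only wells and 100% = bacteria with antibiotic wells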
RecA intein inh – Mtb RecA intein splicing inhibitors, primary screen, biochemical, fluorescence, HTS | Protein RecA (Mycobacterium tuberculosis (strain ATCC 25618 / H37Rv)), P9WHJ3 | cell-free RecA intein splicing | inhibition, %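 (about 9 µM by stock and volumes)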 | hit rate 0.75% among 290,000 | AID 2221, 2009; in the data active = inhibition above about 30%; inconclusive = no clear call, values can overlap the other calls;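 note: 0% = vehicle wells and 100% = reference inhibitor control wells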
Target sequence (P9WHJ3 whole entry, looked up): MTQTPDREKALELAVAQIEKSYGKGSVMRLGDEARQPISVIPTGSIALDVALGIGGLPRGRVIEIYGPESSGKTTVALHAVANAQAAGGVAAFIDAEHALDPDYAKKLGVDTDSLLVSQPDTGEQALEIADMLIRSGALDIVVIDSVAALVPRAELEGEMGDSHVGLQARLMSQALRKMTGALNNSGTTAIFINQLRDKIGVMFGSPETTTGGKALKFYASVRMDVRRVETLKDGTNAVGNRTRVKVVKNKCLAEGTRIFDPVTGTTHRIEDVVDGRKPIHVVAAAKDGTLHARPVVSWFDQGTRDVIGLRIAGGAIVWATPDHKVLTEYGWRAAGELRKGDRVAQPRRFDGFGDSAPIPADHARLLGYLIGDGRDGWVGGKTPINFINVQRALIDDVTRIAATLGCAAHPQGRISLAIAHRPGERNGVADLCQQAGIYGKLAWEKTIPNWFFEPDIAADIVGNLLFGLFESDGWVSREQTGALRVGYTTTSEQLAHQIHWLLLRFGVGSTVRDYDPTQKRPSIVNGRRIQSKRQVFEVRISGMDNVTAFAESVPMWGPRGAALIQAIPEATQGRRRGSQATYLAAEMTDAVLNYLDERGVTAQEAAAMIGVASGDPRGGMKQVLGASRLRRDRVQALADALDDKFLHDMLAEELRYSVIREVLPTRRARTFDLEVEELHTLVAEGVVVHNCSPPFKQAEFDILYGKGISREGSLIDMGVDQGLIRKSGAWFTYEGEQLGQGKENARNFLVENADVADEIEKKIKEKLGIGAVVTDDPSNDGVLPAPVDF
Arbovirus inh repeat – further read-out of Arbovirus inh, marked with its call; inhibition, %; measured here: 10K subset replicate screen; many hits read low in the repeat;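 first of two repeat runs on a subset; 0% = infected and 100% = uninfected wells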
* = called active by the depositor; ? = inconclusive; nt = no result given. The list is partial (hit frequency here may not be typical).

SMILES | Arbovirus inh | YopH inh | Mtb betalactam | Mtb growth | RecA intein inh | others
Cc1c(N2C(=O)CS/C2=N\N=C\c2ccccc2O)c(=O)n(-c2ccccc2)n1C | -3 | -42 | -3 | -2% | -6.1
NNC(=O)c1[nH]c2ccccc2c1-c1ccccc1 | nt | nt | 38 | nt | 5.3
O=S(=O)(c1cnccc1N1CCN(/N=C/c2ccc(Br)cc2)CC1)N1CCCCC1 | 1 | -15 | 3 | 9% | -5.4
Cc1cccc(C(=O)NNS(=O)(=O)c2ccc(F)cc2)c1 | nt | nt | 2 | nt | 1.4
Cc1cc(-n2c(C)cc(C(=O)CSc3nncn3C(C)C)c2C)no1 | nt | nt | -6 | nt | -0.1
COC(=O)C1CCN(C(=O)COC(=O)COc2ccc(C#N)cc2)CC1 | 5 | nt | 1 | 3% | -2.0
COc1ccc(NC(=O)CS(=O)(=O)Cc2nc(-c3ccc(C)cc3)oc2C)cc1 | nt | nt | -6 | nt | -1.4
CCOc1ccc(NC(=O)CN(C)C(=O)CN2C(=O)NC3(CCCC3)C2=O)cc1OCC | nt | nt | 2 | nt | -0.7
Cc1ccc(CNC(=O)Nc2cccc(C)c2)cc1 | -5 | nt | -1 | 0% | -0.8
CCCN(C(=O)CCCSc1nc2ccccc2[nH]1)c1c(N)n(Cc2ccccc2)c(=O)[nH]c1=O | nt | nt | -5 | nt | 13
S=C(Nc1ccc(Cl)cc1Cl)NC1CCN(Cc2ccccc2)CC1 | 13 | -14 | -1 | 10% | 1.7
CCOC(=O)c1c(NC(=O)c2ccno2)c2cc([N+](=O)[O-])ccc2n1C | nt | nt | -9 | 6% | -4.0
Nn1c(Cc2cccc3ccccc23)n[nH]c1=S | 5 | nt | 0 | 0% | -1.2
C/C(=N\OC(=O)c1ccccc1)c1cc(-c2ccc(Cl)cc2)no1 | -8 | 2 | 4 | 29% | -1.1
COc1ccc(C(=O)CC(=O)C(=O)Nc2ccccc2Cl)cc1 | nt | nt | 9 | nt | 13
O=C(Nc1ccccc1F)c1cc(-c2ccco2)nc2ccccc12 | nt | nt | 1 | nt | -2.3
CCOc1ccc(C2NC(=O)C(C#N)=C(S)N2c2ccc(C)cc2)cc1OC (centres undefined) | -3 | -4 | -6 | -8% | -1.3
N/C(=N\OC(=O)Cc1ccccc1)c1ccccc1Cl | -10 | nt | -2 | 6% | 2.6
O=C(NCc1ccccn1)c1ccc(CS(=O)(=O)Cc2ccc(Cl)cc2)o1 | 2 | -61 | -8 | -6% | 1.0
Cc1ccccc1S(=O)(=O)Oc1ccc2ccc(O)cc2c1 | nt | nt | -9 | nt | 27
N/C(=N\OC(=O)Cc1ccc(Cl)cc1)c1ccccn1 | -6 | 3 | 12 | 3% | 0.1
O=C(Nc1nnc(SCCC2OCCO2)s1)C1CC(=O)N(c2ccc(F)cc2)C1 (centres undefined) | nt | nt | ? | nt | 3.3
CCOC(=O)C1CCCN(C(=O)c2ccco2)C1 (centres undefined) | 5 | 20 | 2 | -7% | 0.7 | Arbovirus inh repeat=0
COc1ccc(-n2ncc3c(Nc4cccc(C)c4)ncnc32)cc1 | -2 | -42 | 5 | 5% | -0.1
COc1ccc(S(=O)(=O)Nc2ccc3c(c2)OCO3)cc1C(=O)O | -2 | -5 | -6 | 6% | 0.9 | Arbovirus inh repeat=-1

2 entries picked at random from the list so far, as already listed:
SMILES | Arbovirus inh | YopH inh | Mtb betalactam | Mtb growth | RecA intein inh | others
O=C(Nc1ccccc1F)c1cc(-c2ccco2)nc2ccccc12 | nt | nt | 1 | nt | -2.3
O=C(Nc1nnc(SCCC2OCCO2)s1)C1CC(=O)N(c2ccc(F)cc2)C1 (centres undefined) | nt | nt | ? | nt | 3.3

Entries above with four or more nitrogen atoms (9):
SMILES | Arbovirus inh | YopH inh | Mtb betalactam | Mtb growth | RecA intein inh | others
Cc1c(N2C(=O)CS/C2=N\N=C\c2ccccc2O)c(=O)n(-c2ccccc2)n1C | -3 | -42 | -3 | -2% | -6.1
O=S(=O)(c1cnccc1N1CCN(/N=C/c2ccc(Br)cc2)CC1)N1CCCCC1 | 1 | -15 | 3 | 9% | -5.4
Cc1cc(-n2c(C)cc(C(=O)CSc3nncn3C(C)C)c2C)no1 | nt | nt | -6 | nt | -0.1
CCOc1ccc(NC(=O)CN(C)C(=O)CN2C(=O)NC3(CCCC3)C2=O)cc1OCC | nt | nt | 2 | nt | -0.7
CCCN(C(=O)CCCSc1nc2ccccc2[nH]1)c1c(N)n(Cc2ccccc2)c(=O)[nH]c1=O | nt | nt | -5 | nt | 13
CCOC(=O)c1c(NC(=O)c2ccno2)c2cc([N+](=O)[O-])ccc2n1C | nt | nt | -9 | 6% | -4.0
Nn1c(Cc2cccc3ccccc23)n[nH]c1=S | 5 | nt | 0 | 0% | -1.2
O=C(Nc1nnc(SCCC2OCCO2)s1)C1CC(=O)N(c2ccc(F)cc2)C1 (centres undefined) | nt | nt | ? | nt | 3.3
COc1ccc(-n2ncc3c(Nc4cccc(C)c4)ncnc32)cc1 | -2 | -42 | 5 | 5% | -0.1

Other results follow:
SMILES | Arbovirus inh | YopH inh | Mtb betalactam | Mtb growth | RecA intein inh | others
COc1ccc(N2CC(O)=C(c3nc(-c4ccc(F)cc4)cs3)C2=N)cc1OC | 4 | nt | 1 | 5% | -0.9
Cc1ccc(/C=C/C2=NN(Cc3ccccc3Cl)C(=O)CC2)cc1 | 4 | -1 | -1 | 3% | 1.8
O=C(Nc1ccc2c(c1)OCCO2)c1ccc(Cl)c(S(=O)(=O)N2CCCCC2)c1 | -28 | -41 | ? | -5% | -2.9
CCc1ccc(-c2nc(CN3CCC(C(=O)NCc4ccc(F)cc4)CC3)c(C)o2)cc1 | 20 | -24 | 86 | 7% | 1.4
CC(C)C[C@H](NC(=O)c1nc[nH]c1C(=O)NCCCCCNC(=O)OC(C)(C)C)C(=O)OCc1ccccc1 | 6 | nt | -11 | -16% | 0.7
COc1ccc(C2CC(c3ccc(OC)cc3OC(C)=O)=NN2C(=O)c2ccccc2)cc1 (centres undefined) | nt | nt | -1 | nt | 17
Cc1ccsc1C(=O)OCC(=O)Nc1c(Cl)cccc1C(F)(F)F | -2 | -24 | -3 | -2% | -1.1
O=C(Nc1cccc(-c2cccc(Cl)c2)c1)C1CCN(Cc2ccon2)CC1 | nt | nt | 37 | nt | 8.4
CCCCn1c(=O)c(C(=O)Nc2ccccc2)c(O)c2ccccc21 | -29 | nt | 54 | -1% | 1.1
COc1ccc(C(=O)c2sc(Nc3ccccc3F)nc2N)cc1 | nt | nt | 61 | nt | 6.8
COc1ccc(F)c(CN(C)CC2CCCN(CCc3ccc(F)cc3)C2)c1 (centres undefined) | nt | nt | 0 | nt | -4.5
NC(=O)COC(=O)c1cccnc1Nc1ccccc1F | -3 | nt | -2 | 4% | -0.8
CCn1ncc(/C=N\NC(=O)c2cc(-c3ccc(C)cc3C)nc3ccccc23)c1C | -10 | 3 | 0 | -5% | 9.4
COC(/C=C/Nc1ccc(C)cc1)=C(C#N)C#N | 2 | -53 | -2 | -2% | 0.4
C=C1CCN([C@@H](Cc2ccccc2)C(=O)O)S(=O)(=O)c2ccccc21 | nt | nt | -2 | -11% | 0.7
COc1ccc(CC(NC(C)=O)C(=O)NC2CCN(c3nnnn3-c3ccccc3)CC2)cc1OC (centres undefined) | -3 | nt | 2 | -6% | -6.0
O=C1SC(Cc2ccccc2)C(=O)N1c1ccccc1 (centres undefined) | nt | nt | 7 | 6% | 2.5
COc1ccccc1CNC(=O)C(C)Sc1ccsc1[N+](=O)[O-] (centres undefined) | 14 | nt | -3 | 3% | 0.6
COc1cccc(CNC(=O)C2CCN(S(=O)(=O)N3CCCC3)CC2)c1 | 2 | -30 | 12 | -7% | -2.3
O=S(=O)(Nc1nccs1)c1ccc(Nc2nnc(-c3ccccc3)c3ccccc23)cc1 | -13 | -13 | -2 | 2% | -0.9
O=C1CN(C(=O)COC(=O)CNC(=O)c2ccc(Br)o2)c2ccccc2N1 | 5 | nt | -12 | 3% | 3.4
COc1ccc(-c2c(-c3ccc(OCC(=O)NN)cc3O)n[nH]c2C)cc1OC | nt | nt | 12 | nt | -2.0
CCN(C(=O)CSc1nnnn1-c1ccccc1)c1c(N)n(Cc2ccccc2)c(=O)[nH]c1=O | 10 | -9 | -3 | 17% | -7.3
C=CCn1c(SCC(=O)Nc2c(C)n(C)n(-c3ccccc3)c2=O)nc2scc(-c3ccccc3)c2c1=O | -37 | -4 | -4 | -8% | 4.1
CN(C)S(=O)(=O)c1ccc(C(=O)NNc2nc(-c3ccccc3)c3cc(Br)ccc3n2)cc1 | -18 | -17 | 8 | 14% | 6.8
Further records.
SMILES | Arbovirus inh | YopH inh | Mtb betalactam | Mtb growth | RecA intein inh | others
O=C1C[C@H]2[C@H](CO)[C@@H](OC(=O)c3ccc(-c4ccccc4)cc3)C[C@H]2O1 | nt | nt | 1 | 7% | 1.2
COc1cc(/C=C2\CC/C(=C\c3cc(OC)c(O)c(OC)c3)C2=O)cc(OC)c1O | -28 | -14 | 13 | 6% | nt
CN(C)c1nc(NC(C)(C)C)nc(NC(C)(C)C)n1 | 19 | nt | 18 | 10% | -3.6
COc1ccc(CCc2cc(OC)cc(=O)o2)cc1 | nt | nt | -2 | 7% | -2.0
COc1cc(/C=C2/SC(=S)N(CC(=O)NC(C)(C)C)C2=O)cc(OC)c1OC | -4 | -11 | 1 | -4% | 1.2
CCOC1=NN(c2ccc(Cl)cc2)C(=O)/C1=C\N(C)C | 5 | nt | 5 | -3% | 2.9
CCOP(=O)(OCC)C(NC(=O)C(F)(F)F)c1ccccc1 (centres undefined) | -7 | -15 | 0 | -6% | -3.5
COc1ccc(S(=O)(=O)N2CCC3(CC2)OCCN3S(=O)(=O)c2c(C)cc(C)cc2C)cc1 | nt | nt | -3 | nt | 1.0
COC(=O)CNc1n[nH]c(=S)[nH]c1=O | -4 | -38 | -2 | nt | 0.5
CCn1ncc(CN2CCCC(C(=O)Nc3cccc(-c4cc5ccccc5[nH]4)c3)C2)c1C (centres undefined) | nt | nt | 1 | nt | -1.6
CC[C@@H](C)C(C(=O)N1CCN(C(=O)OC(C)(C)C)CC1)n1cc(-c2cn([C@@H](C)C(=O)N3CCN(C(=O)OC(C)(C)C)CC3)nn2)nn1 (some centres undefined) | nt | nt | -9 | -8% | 4.3
COc1ccc(S(=O)(=O)N2CCCC2)cc1Br | nt | nt | 0 | nt | -0.3
Cc1ccc(NC(=O)CSC2=C(C#N)C(c3ccco3)C3=C(CC(C)(C)CC3=O)N2)cc1 (centres undefined) | -13 | -56 | 11 | 3% | 8.4
Cc1ccccc1C1CCCN(Cc2nc(CC3CC3)no2)C1 (centres undefined) | 1 | nt | 1 | -1% | 3.2
Cc1ccccc1NCC(=O)N/N=C/c1c(C)c(C(=O)c2ccc(Cl)cc2)n2ccccc12 | -10 | -29 | -10 | 13% | 2.9
CCOc1cc(C(=O)N(C)c2ccccc2)cc(OCC)c1OCC | -4 | 3 | 0 | -5% | 0.6
CCCCCCCC(=O)NNC(=O)c1ccc([N+](=O)[O-])cc1 | -5 | -42 | -1 | -1% | -0.8
Cn1cc([N+](=O)[O-])c(C(=O)Nc2cnn(Cc3ccc(F)cc3)c2)n1 | -18 | -28 | -2 | -7% | -4.1
O=C(O)c1cccc(Cn2c(Cl)c(/C=N/NC(=O)c3ccccc3O)sc2=O)c1 | nt | nt | -2 | -3% | 14
CC(C)(C)c1ccc(C(=O)NCC(=O)N2CCC3(CC2)NCCc2[nH]cnc23)cc1 | nt | nt | -6 | nt | 1.8
CSc1ccccc1NC(=O)C1CCN(S(C)(=O)=O)CC1 | nt | nt | 0 | nt | -0.9
c1ccc(SCc2cc(-c3ccccc3)no2)cc1 | 4 | nt | 5 | 8% | 2.0
CCOC(=O)c1ccc(NC(=O)COc2ccc(-n3cnnn3)cc2)cc1 | 2 | -17 | 92 | ? | 2.6
O=C(CCCN1C(=O)c2ccccc2C1=O)Nc1ccc(Br)cn1 | 7 | -41 | 3 | 12% | -2.9
CCN(C(=O)C1CCN(c2nc(-c3ccc(OC)cc3)no2)CC1)c1ccc(OC)cc1 | nt | nt | 6 | nt | 7.0
Cc1ccc(C2/C(=C(/O)c3ccccc3)C(=O)C(=O)N2CCN2CCOCC2)o1 (centres undefined) | 1 | -7 | -5 | -3% | -2.0 | Arbovirus inh repeat=1
CCc1cc2c(=O)n(Cc3ccco3)c(SCC(=O)N3CCCc4ccccc43)nc2s1 | -26 | -39 | 1 | -2% | 8.3

Bioassay records as filed in PubChem BioAssay.
